FEN1 inhibitor: qHTS Assay for the Inhibitors of Human Flap endonuclease 1 (FEN1). P39748. Recombinant FEN1 flap cleavage, fluorescence, 15 min. Potency, µM (top dose mostly 114 µM), inactives show at the top dose activity change, negative = inhibition, most hits filed as inhibitors. hit rate 0.35% among 390,000; further: nearly all actives have a fitted effect of over 65% in size
Target sequence (P39748 whole entry, looked up): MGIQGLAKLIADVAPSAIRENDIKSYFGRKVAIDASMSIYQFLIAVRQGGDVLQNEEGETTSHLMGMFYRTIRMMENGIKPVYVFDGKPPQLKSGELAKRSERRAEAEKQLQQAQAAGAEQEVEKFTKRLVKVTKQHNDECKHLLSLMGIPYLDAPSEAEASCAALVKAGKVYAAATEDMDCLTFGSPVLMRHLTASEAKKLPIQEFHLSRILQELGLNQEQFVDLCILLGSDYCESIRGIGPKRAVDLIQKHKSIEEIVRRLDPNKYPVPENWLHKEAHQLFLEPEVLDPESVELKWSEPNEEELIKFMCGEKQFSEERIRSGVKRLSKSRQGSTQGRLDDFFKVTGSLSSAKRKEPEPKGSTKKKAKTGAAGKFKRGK
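With each library titrated from low to high concentration, compounds met 10 nM FEN1 for 15 min at room temperature before 50 nM substrate was added; readings at 0 and 15 min fed four-parameter Hill curve fits.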
KAT2A inh: qHTS Assay for Inhibitors of GCN5L2 | Potency, µM (top dose mostly 58.9 µM), without a hit: top-dose activity change, negative = inhibition, actives largely listed as inhibitors | hit rate 0.21% among 390,000 | Histone acetyltransferase KAT2A (Homo sapiens), Q92830 | GCN5L2 HAT assay, ThioGlo1 CoA-SH fluorescence
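GCN5L2 (20 nM) in 50mM HEPES pH 7.5, 0.1mM EDTA, 0.01% Tween-20 preincubated 15 min with compounds at room temperature. Reaction started with H3(1-25) 75uM, acetyl-CoA 70uM, ThioGlo1 50uM; CoA-thiol fluorescence (Ex340/Em540) read at 0 and 20 min.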
Active calls of the source: *; ? = inconclusive; . = no result given; & = joins results of further samples. The call rests on the fitted dose curve; in most records, active means well fitted curve in the direction sought with a large enough effect; inconclusive means small, poorly fitted or top-dose-only effect, or another doubt; inactive means no such curve, though single readings can be large; an effect the other way counts as inactive or inconclusive. On the % scale 0 is the no-effect control and ±100 the full control effect; potency means the concentration at half of the fitted maximal effect. This is a subset, and most or all hits are left out here.

KAT2A inh	FEN1 inhibitor	compound
-3%&-4%	-4%&15%	Cc1ccc2c(c1)CC(C)N2S(=O)(=O)c1nnc(NC(=O)CC(C)C)s1 (configuration not stated)
-9%	7%	O=C(NCc1cccs1)c1cc(-c2cccs2)on1
-13%	23%	COc1ccc(NC(=O)Cc2csc(COc3cccc(C)c3)n2)c(OC)c1
-5%	-4%	CCCCOc1ccc(C(=O)NCC(=O)NCc2ccncc2)cc1
-9%	5%	CCN(CC)CCOC(=O)C1(c2ccc(OC)c(OC)c2)CCCC1
-5%	-7%	C=CCN1c2ccccc2[C@]23C[C@@H](C(=O)OC)N=C2NC(C(=O)OC)=C(C(=O)OC)[C@H]13
-2%	-13%	O=C(NNc1nc2c(F)cc(F)cc2s1)C1COc2ccccc2O1 (configuration not stated)
1%	-6%&5%	COc1cc(O)c(C(CCN2CCOCC2)c2cc(OC)c(OC)c(OC)c2)c(OC)c1 (configuration not stated)
1%	3%	O=C(NCc1ccc2c(c1)OCO2)c1ccc2c(=O)n(C3CCCC3)c(=O)[nH]c2c1
-8%	-6%	O=C(Nc1cccc(F)c1)c1c(F)c(F)c(F)c(F)c1F
-1%	-2%	FC(F)(F)c1nnc2n1N=C(c1cccs1)CS2
.	13%	Cc1csc(B(O)O)c1
-10%	22%	C[C@H]1C[C@H]2[C@@H]3CCC4=CC(=O)C=C[C@]4(C)[C@@]3(F)[C@@H](O)C[C@]2(C)[C@@]1(O)C(=O)CO
-3%	.	C[C@]12C=CC(=O)C=C1CCC1C2C(O)C[C@]2(C)C1CC[C@]2(O)C(=O)CO (some centres not stated)
-3%	-4%	COc1cccc(CCNC(=O)c2cnc3sc(N4CCCCCC4)nn3c2=O)c1
-17%	2%	COc1ccc(NC(=S)N2CCN(S(=O)(=O)c3ccc(C)cc3)CC2)cc1
-8%	3%	O=C(NNC(=O)c1cccnc1)NC12CC3CC(CC(C3)C1)C2
2%	0%	Cn1c(N)c(C(=O)COC(=O)/C=C/c2ccc(Cl)c(Cl)c2)c(=O)n(C)c1=O
1%	-5%	CC(=O)Nc1ccc(S(=O)(=O)NCC(=O)Nc2ccc3c(c2)OCO3)cc1
2%	-18%	COC(=O)c1ccc(OC(=O)c2cnccn2)cc1
-12%	-15%	CC(C)CCC(C)NC(=O)c1ccc2nccnc2c1 (configuration not stated)
-19%	-1%	CC(C(=O)NC(=O)NC1CCCCC1)N(C)CC(=O)Nc1ccc(F)c(F)c1F (configuration not stated)
-4%	21%	COc1ccccc1C(=O)N/C(=C\c1cn(S(=O)(=O)N(C)C)c2ccccc12)C(=O)N1CCCCC1
-1%	0%	O=C(Nc1ccccc1)N1CCCC1c1cccs1 (configuration not stated)

Single records (already shown). Order of screens: KAT2A inh, FEN1 inhibitor
C[C@H]1C[C@H]2[C@@H]3CCC4=CC(=O)C=C[C@]4(C)[C@@]3(F)[C@@H](O)C[C@]2(C)[C@@]1(O)C(=O)CO reads -10%, 22%
COc1cccc(CCNC(=O)c2cnc3sc(N4CCCCCC4)nn3c2=O)c1 reads -3%, -4%
O=C(NNC(=O)c1cccnc1)NC12CC3CC(CC(C3)C1)C2 reads -8%, 3%
CC(=O)Nc1ccc(S(=O)(=O)NCC(=O)Nc2ccc3c(c2)OCO3)cc1 reads 1%, -5%
CC(C)CCC(C)NC(=O)c1ccc2nccnc2c1 (configuration not stated) reads -12%, -15%

Further results.
KAT2A inh	FEN1 inhibitor	compound
-7%	-12%	CCN(Cc1nc(-c2ccc(OC)c(OC)c2)no1)S(=O)(=O)c1ccc(OC)cc1
-5%	9%	CCNC(=O)COC(=O)c1csc2c1CCCC2
-4%	-3%	Cc1ccc2c(C)c(C(=O)Nc3c(C)n(C)n(-c4ccccc4)c3=O)oc2c1C
-4%	12%	O=C(NCc1ccc2c(c1)OCO2)c1cc([N+](=O)[O-])ccc1N1CCCCC1
-6%	-6%	CN(CCC1CCOCC1)C(=O)C1CCC(=O)N(CCc2ccc(Cl)cc2)C1 (configuration not stated)
-1%	-12%	COc1cccc(OCCCCCN2CCOCC2)c1
-4%	-13%	CCn1cc(CNCc2cn(C)nc2-c2ccc(C3CCCCC3)cc2)cn1
-12%	-18%	N#CCCn1cc(C(=O)Nc2cccc(C(=O)O)c2)c(-c2ccc(Cl)cc2)n1
-11%	3%	Cc1ccc(CCNC(=O)C2CCN(c3nnc(-n4cccc4CNc4ccc(C)cc4)s3)CC2)cc1
-10%	-16%	COc1ccccc1C1(CCNS(=O)(=O)c2ccc(C)cc2)CCOC(C(C)C)C1 (configuration not stated)
-12%	-9%	Cc1cccc(NC(=O)C2CCN(c3nc4ccccc4[nH]3)CC2)c1C
4%	13%	O=C(O)c1cccc(S(=O)(=O)Nc2ccc3c(c2)CCC3)c1
-3%	0%	Cc1cc(C)n(-c2ccc(F)cc2)c(=O)c1C#N
2%	0%	COC(=O)CN(C#N)c1nc(OC)nc(N(C)C)n1
-3%	-16%	COc1ccc(-c2cc(C(C)=O)c(C)n2CCC(=O)NCc2ccccc2OC)cc1
0%	0%	COCCCNc1nc2c(c(=O)[nH]c(=O)n2C)n1CC(O)COc1cccc(C)c1 (configuration not stated)
-11%	1%	CCN(c1ccccc1)S(=O)(=O)c1ccc(OCC(=O)Nc2cc(C)on2)cc1
-4%	-2%	COc1cc(OC)cc(-n2nnnc2SCC(=O)Nc2nc3c(s2)CCCC3)c1
3%	-1%	COc1ccc(/C=C2/NC(=O)N(CC(=O)Nc3cccc(C)c3)C2=O)cc1O
-14%	-8%	Cn1cnc([N+](=O)[O-])c1Nc1ccc(O)cc1
-1%	0%	CCC(CC)C(=O)Nc1ccc(C(=O)c2ccccc2)cc1
-14%	-20%	C/C(CC(=O)Nc1ccc(Cl)c(C(F)(F)F)c1)=N\NC(=O)c1cc2ccccc2cc1O
-5%	-14%	COc1ccccc1/C=C/C(=O)N1CCN(S(=O)(=O)c2cccs2)CC1
-1%	1%	Cc1ccc(C)c(NC(=S)NC(NC(=O)OCc2ccccc2)C(Cl)(Cl)Cl)c1 (configuration not stated)
-6%	16%	COC(=O)Cc1ccc(NC(=O)c2ccc3c(c2)C(=O)N(Cc2cccnc2)C3=O)cc1
-3%	-3%	O=C(NCCc1ccc2c(c1)OCO2)C1CCN(S(=O)(=O)c2ccc(Cl)cc2)CC1
-7%	13%	CCC1CCCCN1CCCNC(=O)CSc1nc2nc(C)c(Cc3ccccc3Cl)c(C)n2n1 (configuration not stated)
-3%	-7%	CC(=O)N1CCN(C(=O)CCc2nnc(CCCCc3ccccc3)o2)CC1
-8%	-8%	COc1ccc(CNC(=O)C2CCCN(S(=O)(=O)c3ccc4c(ccn4C)c3)C2)c(OC)c1 (configuration not stated)
2%	-5%	O=S(=O)(c1ccc2c(c1)CCCN2)N1CCCC1
?	-20%	O=C(CC1C(=O)NCCN1Cc1ccc(Cl)c(F)c1)NC1CCC1 (configuration not stated)
4%	-14%	Cc1ccc(N2C(=O)Cc3ccccc3C2=O)cc1
-11%	10%	CCN(C(=O)c1ccc(C)c(Br)c1)c1ccccc1
-4%	14%	CN(Cc1ccon1)C(=O)CC1C(=O)NCCN1CC(C)(C)C (configuration not stated)
0%	-5%	CCC(=O)Nc1cccc(Br)c1
27%	-3%	N/C(=N\OC(=O)c1ccc2c(c1)OCO2)c1ccc(Cl)cc1
-4%	2%	CN1CCN(S(=O)(=O)c2ccc3c(c2)OCCO3)CC1
-10%	0%	CC(C)NC(=S)N/N=C/c1sc(N2CCCCC2)nc1-c1cccs1
-1%	0%	S=C(Nc1ccc2snnc2c1)N1CCN(c2ccccn2)CC1
-20%	-16%	CCOc1ccc2nc(N/C(N)=N/C(=S)Nc3ccc(OC)cc3)nc(C)c2c1
-8%	-17%	O=C(c1ccc2ccccc2n1)N1CCN(c2ccccc2Cl)CC1
-29%	?	Cc1ccc2c(=O)cc(C(=O)Nc3nc4ccc(Cl)cc4s3)oc2c1C
0%	-12%	Cc1ccc(Cl)cc1NC(=O)CN1C(=O)NC2(CCCCCC2)C1=O
3%	-5%	COc1ccc(O)c(C2NC(CC(C)C)(C(=O)O)C3C(=O)N(Cc4ccccc4)C(=O)C23)c1 (configuration not stated)
-7%	-8%	CC(C)(C)c1ccc(-c2nnc(N)s2)cc1
-17%	-5%	Fc1ccc(Nc2ncnc3c2nc2n3CCCCC2)c(F)c1
-9%	-6%	CC(C)C(=O)c1c(C(C)C)nn2ccccc12
-13%	-2%	CC(=O)Nc1ccc(CN2CCN(Cc3ccc(F)c(F)c3)C(CCO)C2)cc1 (configuration not stated)

Some of these compounds in order of formula weight, lowest first.
KAT2A inh	FEN1 inhibitor	compound
-4%	2%	CN1CCN(S(=O)(=O)c2ccc3c(c2)OCCO3)CC1
-1%	0%	S=C(Nc1ccc2snnc2c1)N1CCN(c2ccccn2)CC1
-10%	0%	CC(C)NC(=S)N/N=C/c1sc(N2CCCCC2)nc1-c1cccs1
-13%	-2%	CC(=O)Nc1ccc(CN2CCN(Cc3ccc(F)c(F)c3)C(CCO)C2)cc1 (configuration not stated)
3%	-5%	COc1ccc(O)c(C2NC(CC(C)C)(C(=O)O)C3C(=O)N(Cc4ccccc4)C(=O)C23)c1 (configuration not stated)

The list continues:
KAT2A inh	FEN1 inhibitor	compound
-4%	4%	O=C(CSc1nc(-c2ccccc2Cl)ns1)NCc1ccco1
-5%	0%	Fc1cccc(NC(=S)N2CCCCC2)c1
-2%	-19%	COc1ccc(CCN(C)C(=O)CCCN2C(=O)c3cccc4cccc(c34)C2=O)cc1OC
-2%	9%	COc1ccccc1C(=O)NCCCNc1ccc([N+](=O)[O-])cc1
2%	-8%	CC(C)CCN1C(=O)c2ccc(C(=O)NCc3ccco3)cc2C1=O
-2%	-2%	COc1ccccc1N1CCN(S(=O)(=O)c2c(C)[nH]c(C)c2C(=O)N2CCCCC2)CC1
-4%	-2%	O=C(NCCCN1CCOCC1)c1ccccc1
1%	10%	COc1ccc(S(=O)(=O)N2CCCCCC2)cc1NC(=O)c1ccccc1
-9%	-16%	CCN1CCN(C(=S)Nc2sc(C)c(-c3ccccc3)c2C(=O)OC)CC1
-5%	-6%	COc1ccc(C(C(=O)NC(C)(C)C)N(C(=O)CNC(=O)c2cccs2)c2ccc(C)cc2)cc1OC (configuration not stated)
-5%	10%	CCOC(=O)/C=C/c1cnn(-c2ccccc2)c1
3%	-18%	O=C(CSc1ncnc2c1oc1ccccc12)Nc1ccccc1C(F)(F)F
-4%	-2%	Cc1nc(NC(=O)COC(=O)C2=NNC(=O)CC2)c(Cl)cc1Cl
2%	-18%	CCCCC(=O)Nc1ncc(S(=O)(=O)c2ccc([N+](=O)[O-])cc2)s1
3%	-6%	CN(CC(=O)Nc1cc([N+](=O)[O-])ccc1Cl)Cc1ccc(Br)cc1
-8%	-3%	C=CCN(C(=O)c1cccc(S(=O)(=O)N2CCN(C)CC2)c1)c1nc(-c2ccccc2)cs1
1µM*	3%	Cc1csc(C(C#N)C(=O)c2ccc(S(=O)(=O)N3CCCC3)cc2)n1 (configuration not stated)
-6%	-8%	COc1ccc(NC(=O)C2C3C=CC(C3)C2C(=O)NCc2ccco2)cc1 (configuration not stated)
-7%	-3%	O=C(CN1C2=NCCCN2c2ccccc21)c1ccc(Br)s1
-3%	-3%	COc1nc(SC)nc(Cl)c1Cc1ccc(OC(C)C)cc1
-6%	-3%	CC(=O)c1ccc(NC(=O)C(C)O/N=C(\N)c2ccccc2)cc1 (configuration not stated)
-3%	2%	CCOCCCNC(=O)C(NC(=O)C1CCC(C)CC1)C(C)C (configuration not stated)
-5%	-17%	N#CCSc1nc2ccccc2c2nc3ccccc3n12
-11%	-1%	Cc1cc(NC(=O)CSc2nc(-c3cccc(F)c3)nc3c2c(=O)n(C)c(=O)n3C)no1
9%	-7%	O=C(O)CN1C(=O)C2C3CC(C2C1=O)C1C(c2ccc(Cl)cc2)c2sc(=O)[nH]c2SC31 (configuration not stated)
0%	-14%	N#Cc1c(N)c(C(=O)c2ccccc2)n2c1CCC2
-8%	1%	COc1ccc(/C=C(\NC(=O)c2ccc(Cl)cc2)C(=O)NCC2CCCO2)cc1OC (configuration not stated)
3%	-8%	O=C(NCc1ccccn1)C1CCN(S(=O)(=O)N2CCCC2)CC1
-5%	19%	COc1ccc(S(=O)(=O)N/N=C(/C)c2ccncc2)cc1
-8%	-4%	C=CCNC(=O)c1onc(CSc2cc(C)ccc2C)c1C(=O)O
-3%	4%	Cc1scc(C(=O)NNC(=S)NCC(C)C)c1C
-25%	-2%	CC(C)CCN1CCNC(=O)C1CC(=O)N(C)CCCN1CCOCC1 (configuration not stated)
-8%	1%	Cc1noc(C)c1NC(=O)N(C)C[C@H]1Oc2c(NS(=O)(=O)c3cccs3)cccc2C(=O)N([C@H](C)CO)C[C@@H]1C
-17%	-14%	CC(C)(C)OC(=O)N1CCC(c2c(C(=O)N3CCN(Cc4ccccc4)CC3)cnn2-c2cccc(Cl)c2)CC1
-3%	-11%	CN(CC(=O)NC1CCN(Cc2ccccc2)CC1)S(=O)(=O)c1ccc2c(c1)c(=O)n(C)c(=O)n2C

Bioassay records deposited in PubChem BioAssay by National Center for Advancing Translational Sciences (NCATS).
